Assay outcomes from PubChem.
PI4K2A inh: inhibitors of human PI4K2A; Q9BTU6; purified PI4K2A, ADP-Glo luminescence, 1 h; hits give low values; activity change, negative = inhibition, % at 76.9 µM; 0.13% of 420,000 active; AID 1346378; in the data active = activity change below about -50%; inconclusive = mostly about -30% to -49%;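 also: -100% = wells without enzyme as full effect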
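PI4K2A activity was measured by ADP-Glo luminescence: enzyme (4 ug/mL stock) and phosphatidylinositol (1.2 mM stock) in Tris pH 7.5/MgCl2/EGTA/Triton X-100 buffer were reacted with ATP (300 microM stock) for one hour at ambient temperature.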
D2 agonist: agonists of human D2 dopamine receptor; HEK293 T-REx D2 cells, calcium flux agonist mode; activation, % at 2 µM; 0.53% of 340,000 active; AID 485358;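 active = activation over 3 SD above normal in the single-dose calcium agonist read, cut at about 30% in these data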; also: 0% is about no effect
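Agonism scored from kinetic calcium signal (1 read/sec, 180 s) following compound pin transfer, after a 10 s baseline. Cells: HEK293 Trex line expressing inducible D2 receptor coupled to calcium, dye-loaded after overnight culture at 30 C.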
TrxR1 substrate: rat thioredoxin reductase 1 substrate activity; O89049; purified TrxR1 substrate turnover, NADPH consumption readout; Potency, µM (titrated, usually from 114 µM), for inactives: at the highest dose activity change, negative = substrate turnover; 0.01% of 390,000 active; also: potency is read from the fitted curve at half-maximal effect; % is scaled to controls: 0 for no effect and ±100 for the full control effect; nearly all actives have a fitted effect of over 50% in size
Target sequence (O89049 whole entry, looked up): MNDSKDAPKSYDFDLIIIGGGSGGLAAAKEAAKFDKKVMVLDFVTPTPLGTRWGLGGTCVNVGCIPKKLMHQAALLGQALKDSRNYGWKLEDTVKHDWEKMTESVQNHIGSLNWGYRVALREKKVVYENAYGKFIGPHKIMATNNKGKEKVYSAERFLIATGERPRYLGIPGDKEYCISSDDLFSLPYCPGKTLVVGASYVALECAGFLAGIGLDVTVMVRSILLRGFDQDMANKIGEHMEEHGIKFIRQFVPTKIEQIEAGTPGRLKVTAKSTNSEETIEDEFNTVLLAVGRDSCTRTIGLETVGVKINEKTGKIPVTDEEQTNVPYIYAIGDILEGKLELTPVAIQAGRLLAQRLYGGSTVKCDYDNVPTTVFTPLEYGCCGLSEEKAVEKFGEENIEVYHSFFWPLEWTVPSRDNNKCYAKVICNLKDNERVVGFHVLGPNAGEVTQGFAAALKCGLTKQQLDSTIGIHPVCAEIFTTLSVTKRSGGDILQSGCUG
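Rat TrxR1, dispensed at 90 nM, was prereduced with 400 uM NADPH (final) for 5 min at ~22 deg C, then incubated with compound 15 min before 400 uM selenite. A first-read NADPH fluorescence drop versus no-compound background flagged substrates.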
D2 antagonist: D2 dopamine receptor (human) antagonism; P14416; HEK293 TREx D2 cells, calcium flux, dopamine EC80; inhibition, % at 10 µM; 2% of 340,000 active; in the data active = inhibition above about 30%; also: 0% is about no effect
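Overnight-induced (tetracycline, 30 C) HEK293 T-REx cells carrying force-coupled D2 receive a no-wash calcium dye, then compound, then EC80 dopamine at 180 s; signals are read kinetically throughout.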
TRHR enhancer: allosteric enhancers of human TRH receptor. enhancement, % at 2 µM. 0.66% of 360,000 active. TRHR cells, fluo-8 calcium fluorescence, EC20 TRH enhancement; in the data active = enhancement above about 30%; also: 0% is about no effect
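Enhancer read-out: after compound pinning and an initial kinetic agonist-mode read, an EC20 of TRH (10 nM final) was injected and fluo-8 calcium signal (Ex 480/Em 530) followed at 1 s/cycle for 100 cycles in TRHR-expressing cells.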
TRHR agonist: activates the human TRH receptor | P34981 | TRHR cells, calcium flux fluo-8, FDSS agonist mode | activation, % at 2 µM | 0.18% of 360,000 active; in the data active = activation above about 30%; also: 0% is about no effect
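TRHR-expressing cells, plated overnight in medium with 10% serum, were loaded with fluo-8 calcium dye at room temperature. After a 10 s baseline, library compound was pin-added and calcium release was recorded kinetically (ex 480/em 530) as agonist response.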
rTrxR1 inhibitor: blocks rat thioredoxin reductase 1; 1% of 390,000 active; recombinant rTrxR1, NADPH fluorescence consumption, selenite substrate; O89049; AID 588453; Potency, µM (series often up to 114 µM), for the others: at the top dose activity change, negative = inhibition, usual class: inhibitors; also: potency is read from the fitted curve at half-maximal effect; % is scaled to controls: 0 for no effect and ±100 for the full control effect; nearly all actives have a fitted effect of over 65% in size
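Rat TrxR1 (90 nM in the dispensed reagent) was pre-reduced with 400 uM NADPH for 5 min at room temperature, then incubated with compound for 15 min. After 400 uM selenite was added, NADPH fluorescence (Ex 340/Em 450 nm) was followed for 8 min.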
IDH1 R132H inh: inhibitors of human mutant IDH1 R132H; O75874; IDH1-R132H enzyme, NADPH consumption, diaphorase/resazurin fluorescence; Potency, µM (titrated, usually from 76.6 µM), for inactives: top-dose activity change, negative = inhibition, usual class: inhibitors; 0.093% of 390,000 active; also: potency is read from the fitted curve at half-maximal effect; % is scaled to controls: 0 for no effect and ±100 for the full control effect; nearly all actives have a fitted effect of over 65% in size
Target sequence (O75874 whole entry R132H, stated change not applied): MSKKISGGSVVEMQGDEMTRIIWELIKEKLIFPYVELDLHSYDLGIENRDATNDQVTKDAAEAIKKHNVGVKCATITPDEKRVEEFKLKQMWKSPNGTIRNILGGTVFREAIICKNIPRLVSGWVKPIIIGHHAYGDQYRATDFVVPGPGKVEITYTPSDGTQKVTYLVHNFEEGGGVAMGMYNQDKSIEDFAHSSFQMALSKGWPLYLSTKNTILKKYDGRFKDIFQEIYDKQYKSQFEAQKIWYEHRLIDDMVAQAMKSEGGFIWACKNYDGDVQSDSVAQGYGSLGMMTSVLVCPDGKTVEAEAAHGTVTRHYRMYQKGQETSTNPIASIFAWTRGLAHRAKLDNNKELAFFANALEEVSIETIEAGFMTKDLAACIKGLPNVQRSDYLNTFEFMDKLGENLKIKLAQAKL
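IDH1-R132H (0.5 ug/mL) preincubated 30 min with compound, then NADPH (0.016 mM) and alpha-KG (2 mM) added; 80 min at RT, pH 7.5. Remaining NADPH coupled via diaphorase/resazurin to fluorescence (540/590 nm); concentration-response curves normalized to no-enzyme control.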
* hit, by the source's call; ? = inconclusive; / = no result given; & = joins results of further samples; [ ] = remark or other dose. Unless noted, calls follow the shape of the dose curve; as a rule, active = well fitted inhibition curve with a large enough effect; inconclusive = small, poorly fitted or top-dose-only effect; inactive = no such curve, though single readings can be large or run the other way. An excerpt. The share of hits here may be higher or lower than overall.

compound	PI4K2A inh	D2 agonist	TrxR1 substrate	D2 antagonist	TRHR enhancer	TRHR agonist	rTrxR1 inhibitor	IDH1 R132H inh
C[C@H](NC(=O)c1nc[nH]c1C(=O)N1CCc2ccccc2C1)C(=O)OC(C)(C)C	-7	-0.6	6%	22	-3	-1.1	7%	11%
Cc1ccc(N2CCN(C(=O)Nc3cn(CC(C)C)c(=O)c4ccccc34)CC2)c(C)c1	-19	-1.8	12%	/	-15	-0.4	33%	1%
Cc1ccc(CNCc2cc3c(C(C)(C)C)nn(-c4ccccc4)c3[nH]c2=O)cc1	4	0.0	5%[57.1 µM]	-10	-6	-0.1	2%	0%
Fc1cccc(Cc2noc(CN3CCOCC3)n2)c1	3	0.5	-14%	8	-1	0.8	-12%	-4%
Nc1ccc(C(=O)Oc2ccc([N+](=O)[O-])cc2)cc1	-2	0.6	6%[57.1 µM]	-3	-3	1.5	-2%[57.1 µM]	-12%
COc1cccc(/C=C/C(=O)OCC(=O)Nc2ccc(S(=O)(=O)N3CCCC3)cc2)c1	0	-1.3	46%	-1	3	-1.1	43%[activator][57.1 µM]	1%
Cc1ccc(C(=O)Nc2ccccc2C(=O)O)cc1S(=O)(=O)NC1CCCCC1	-2	0.8	-1%	22	-8	-0.5	20%	-10%
Cc1ccc(-c2nn(-c3ccccc3)c3[nH]c(=O)c(CNCc4ccccc4)cc23)cc1	1	-0.5	20%	5	-2	0.2	20%	-7%
CN(C)CCCN(CCCNC(=O)/C=N/O)Cc1ccccc1	1	0.9	2%	-27	6	0.8	2%	0%
Cc1ccc(C2C=C(c3ccc(Cl)cc3)Nc3nc(NC(=O)CCC(=O)O)nn32)cc1 (configuration not stated)	-1	2.6	19%[57.1 µM]	/	15	6.6	-16%[57.1 µM]	-5%
COc1ccccc1NC(=O)C1=C(C)Nc2nnnn2C1c1cccc(Br)c1 (configuration not stated)	-4	0.1	3%	-19	13	0.6	-2%	-2%
Cc1ccc(NC(=O)c2ccc(Cl)cc2Cl)c(C(=O)c2ccccc2)c1	-2	-1.7	3%	/	-4	0.5	11%	-9%
COc1cccc2c1CCc1c-2nc2ccccc2c1C(=O)O	-4	-2.4	-29%	2	0	-0.9	?	8%
c1cncc(C(c2nnnn2C2CCCC2)N2CCCC2)c1 (configuration not stated)	1	-0.5	11%	-1	-5	0.3	-27%	0%
Cc1cccc(C)c1NC(=O)/C(C#N)=C/c1ccc(-c2ccc(C(=O)O)cc2)o1	-1	-0.2	4%[0.457 µM]	0	-4	0.5	-11%	3%
COc1cc(OC)c(OC)cc1/C=N/n1c(C)nnc1C	8	0.0	44%[activator]	8	-1	-0.2	-3%	13%
Oc1c(C=Nc2ccccc2)sc(=S)n1Cc1ccccc1	8	2.3	6%[57.1 µM]	4	6	3.5	4%[57.1 µM]	5%
COc1cccc(NC(=O)/C(C#N)=C/c2ccc(-c3ccc(C)cc3)o2)c1	1	7.4	-13%	/	8	34*	-8%	30%
CC(C)CC(C(=O)N1CCOCC1)N1Cc2ccccc2C1=O (configuration not stated)	0	-0.2	-2%	-1	23	0.1	8%	4%
C[C@H](NC(=O)c1nc[nH]c1C(=O)N[C@@H](C)c1ccccc1)C(=O)OC(C)(C)C	-2	1.1	-3%	-4	-1	0.4	-3%	4%
COc1ccc(/C=C2\Oc3cc(OCC(=O)N4CCC[C@H]4C(=O)O)ccc3C2=O)c(OC)c1	2	2.6	-14%	-11	6	4.4	-21%	-9%
CCC(=O)/C=C1\Sc2ccccc2N1CC	2	0.4	-18%	-5	-3	-0.3	-17%	2%
O=C(NCc1cccs1)C1(S(=O)(=O)c2ccccc2)CC=CC1	0	-0.1	10%	-15	-1	-0.2	29%	24%
COC(=O)C1=NN(c2ccccc2)C2C(=O)N(c3ccccc3OC)C(=O)C12 (configuration not stated)	-4	2.6	39%[activator]	-2	-4	0.4	73%[activator]	4%
CC1CC(C)CN(CCCNC(=O)CCC(=O)N2CC(C)Oc3ccccc32)C1 (configuration not stated)	3	0.7	7%[57.1 µM]	-1	0	-0.5	7%[57.1 µM]	4%
C=CCn1c(CCNC(=O)c2cccs2)nnc1SCC(=O)Nc1cccc(Cl)c1C	0	0.0	-6%	-11	-19	0.8	-9%	-2%
CC(CNC(=O)CCC(=O)N1CCOc2ccccc21)c1ccccc1 (configuration not stated)	7	-0.5	-1%[57.1 µM]	29	-2	-0.2	12%[57.1 µM]	-4%
COc1ccc2cc(C#N)c(N3CCN(Cc4nnnn4CCC(C)C)CC3)nc2c1	4	0.6	12%	-6	-6	0.2	4%	2%
CC1=C(C(=O)Nc2cccnc2)C(c2ccncc2)n2nnnc2N1 (configuration not stated)	-5	1.3	-7%	-10	0	0.6	-16%	0%
c1cncc(C(c2nnnn2C2CCCCC2)N2CCCCC2)c1 (configuration not stated)	0	-1.0	11%[57.1 µM]	1	28	-0.6	14%	-3%
CCOC(=O)c1c(C)oc2ncnc(N3CCN(c4ccc(C)cc4C)CC3)c12	5	-0.2	-3%	/	-3	-0.2	8%	-7%
c1cc(C(c2nnnn2C2CCCC2)N2CCOCC2)ccn1 (configuration not stated)	-4	0.5	7%	-19	2	1.0	14µM*	4%
CCOc1ccc(C(C)=O)cc1CSc1nnc(-c2ccncc2)n1CCOC	3	-1.1	0%	-2	1	-0.5	21%	-6%
CC(=O)Nc1ccc(S(=O)(=O)Nc2nc3ccccc3nc2Nc2ccc3ccccc3c2)cc1	-3	2.0	0%	-11	3	2.3	-9%	-1%
O=C(Nc1ccccc1Cl)c1ccccc1S(=O)(=O)c1ccccc1[N+](=O)[O-]	-1	-0.8	-2%	1	-4	-0.9	4%	9%
COCCN1C=C2C(=O)C(C)(OC(=O)c3cccs3)C(=O)C=C2C=C1CCCC(=O)OC (configuration not stated)	-15	-0.2	-11%	-20	-6	-0.2	3%[57.1 µM]	-2%
NS(=O)(=O)c1ccc(NC(=O)c2ccc3nccnc3c2)cc1	0	0.2	2%[57.1 µM]	11	5	0.8	7%[57.1 µM]	-1%
CC(=O)Cc1nsc(NC(=O)c2oc(-c3ccccc3Cl)cc2C)n1	4	0.8	-3%	5	-8	-0.7	-8%	24%
Cc1ccc(C(=O)Nc2cccc(N(C)S(C)(=O)=O)c2)cc1S(=O)(=O)Nc1ccccc1	-3	0.1	-8%	-11	1	0.3	12%	2%
COc1cc(CC(=O)O)c(C(C)=O)cc1OC	4	0.6	12%[57.1 µM]	7	6	0.0	9%[57.1 µM]	6%
CNC(=O)C(C)N1c2cccc3cccc(c23)S1(=O)=O (configuration not stated)	2	-0.9	16%	-3	-4	-0.2	36%[2.29 µM]	-1%
CCCc1ccc(S(=O)(=O)NCC2CCCN2CC)cc1 (configuration not stated)	4	-0.4	-14%	-8	6	0.1	-25%	-2%
Cc1nc(-c2ccc(NC(=O)c3ccccc3C)cc2)cs1	-7	1.1	-9%[57.1 µM]	-8	-6	-0.7	28%[57.1 µM]	15%
COc1cccc(-c2nn(C)c3sc(C(=O)NCc4ccc(C)cc4)cc23)c1	1&7	1.2&0.1	42%[activator]	10	4&-5	1.3&0.3	61%[activator]	-6%&0%
Nc1c(C(=O)c2ccccc2)sc2nsc(SCCN3CCOCC3)c12	3	32*	-1%[57.1 µM]	2	11	89*	7%[57.1 µM]	-2%
O=c1c2c(nc3c(-c4ccccc4)c[nH]n13)CCCC2	-7	-1.5	2%	3	-2	0.1	-9%	7%
COC(=O)c1ccc(NC(=O)C(=O)N2CCCC2)cc1	-3	0.5	0%	-1	-3	0.0	7%	-2%
CC(=O)Cc1nsc(NC(=O)c2ccc(Br)o2)n1	0	0.2	3%	-3	2	0.3	-16%	10%
CC(C(=O)Nc1ccccc1Br)N1c2cccc3cccc(c23)S1(=O)=O (configuration not stated)	-1	-1.7	17%	-3	0	0.4	35%[activator]	3%
Cc1ccccc1NC(=O)c1ccc(C)c(S(=O)(=O)Nc2cccnc2)c1	-2	0.5	-4%	-13	1	0.2	-7%	0%
Cc1c(N=C2N=C(NC(=O)c3ccc(F)cc3)c3ccccc32)c(=O)n(-c2ccccc2)n1C	-8	2.1	-15%[57.1 µM]	3	25	4.0	23%[57.1 µM]	1%
Cc1ccc(C2C=C(c3ccccc3)Nc3nc(NS(=O)(=O)c4ccc(C)cc4)nn32)cc1 (configuration not stated)	1	1.6	8%[57.1 µM]	/	-2	3.1	6%[57.1 µM]	-18%
